High-throughput results as filed in PubChem.
Six1-Eya2 blk: blocks human Six1 binding to Eya2. Q15475+O00167. 0.56% of 360,000 active. AlphaScreen GST-Six1/His-Eya2 binding, biochemical; active compounds read low; control for the full effect not named in the record. AID 651725. activity change, % (no concentration beside the values); in the data active = activity change below about -65%; inconclusive = about -30% to -65%; inactive = above about -30%; also: % is scaled to controls: 0 for no effect and ±100 for the full control effect
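AlphaScreen luminescence read after one hour at 37 °C in darkness. Pin-transferred compounds met GST-Six1 and His-Eya2 protein (5X stock 250 nM/500 nM) plus glutathione donor and Ni-chelate acceptor beads (5X, 50 ug/mL).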
D2 potentiator: human D2 receptor positive allosteric modulation; DiscoveRx D2 beta-arrestin cells, luminescence, 90 min; 100% = 57 uM dopamine signal; potentiation, % (test concentration not listed); 0.23% of 360,000 active; active = potentiation of 50% or more; inconclusive = 30% to 50%; inactive = 30% or less;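 also: compound concentration not given in the record; tested on top of an EC20 dose of dopamine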
Target sequence (P14416 whole entry, looked up): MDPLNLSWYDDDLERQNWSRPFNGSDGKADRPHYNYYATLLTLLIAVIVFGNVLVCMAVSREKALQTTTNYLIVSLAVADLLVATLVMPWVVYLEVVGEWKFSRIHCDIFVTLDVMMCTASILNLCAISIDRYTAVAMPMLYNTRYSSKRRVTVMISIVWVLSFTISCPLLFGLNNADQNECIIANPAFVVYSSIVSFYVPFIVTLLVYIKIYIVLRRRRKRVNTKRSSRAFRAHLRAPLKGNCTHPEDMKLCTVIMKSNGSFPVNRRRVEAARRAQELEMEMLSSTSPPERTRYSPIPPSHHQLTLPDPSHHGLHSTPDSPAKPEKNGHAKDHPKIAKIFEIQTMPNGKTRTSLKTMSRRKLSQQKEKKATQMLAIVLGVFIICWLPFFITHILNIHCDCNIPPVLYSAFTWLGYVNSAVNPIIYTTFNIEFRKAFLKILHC
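D2 cells co-treated with compound plus 50 nM dopamine (EC20) for 90 min at 37 deg C to detect potentiation. Beta-arrestin recruitment was read as enzyme-fragment luminescence after 1 h at ambient temperature. Full response was set by 57 uM dopamine.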
D2 agonist: agonists of human D2 dopamine receptor (beta-arrestin) | P14416 | DiscoveRx PathHunter D2 beta-arrestin, luminescence, 90 min; 100% = 57 uM dopamine signal | activation, % (no concentration beside the values) | 0.084% of 360,000 active; in the data active = activation above about 40%; inconclusive = about 15% to 40%; inactive = below about 15%; also: compound concentration not given in the record; the text of the record calls up to 30% inactive
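DiscoveRx PathHunter D2 beta-arrestin cells (2,100/well) attached overnight, then compound-stimulated 90 min at 37 C in HBSS/10 mM HEPES/0.1% Tween-20 buffer; beta-galactosidase complementation read by luminescence after 1 h at ambient temperature. Dopamine 57 uM final (EC100) as control.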
PINK1 modulator: modulators of PINK1 expression | PINK1 immunofluorescence, high-content cytometry, 24 h | Potency, µM (highest dose often 76.6 µM), inactives show at the top dose activation (PINK1 increase), most hits filed as activators | 0.2% of 410,000 active; active = well fitted activation curve with a large enough effect; inconclusive = small, poorly fitted or top-dose-only effect; inactive = flat fitted curve, though single readings scatter; cell line not stated here;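 also: potency is read from the fitted curve at half-maximal effect; % of control where 0% means no effect; nearly all actives have a fitted effect of over 65% in size; a mitochondrial uncoupler was the plate control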
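A stable cell line was treated with compounds at 5 concentrations for 24 hours, with CCCP as control. PINK1 levels and mitochondrial localization were measured by immunofluorescence with mitochondrial, cell and nuclear markers after fixation, read by laser-scanning cytometry.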
TRPML1 ag: human mucolipin-1 channel agonism; AID 624414; activation, % (no concentration beside the values); Q9GZU1; 0.12% of 410,000 active; TRPML1-expressing cells, Ca2+ dye fluorescence, FDSS; host cell line not named in the record; reference of the full effect not given here; in the data active = activation above about 50%; inconclusive = about 30% to 50%; inactive = below about 30%; also: 0% is about no effect; the text of the record puts the active cut at 80%
Target sequence (Q9GZU1 whole entry, looked up): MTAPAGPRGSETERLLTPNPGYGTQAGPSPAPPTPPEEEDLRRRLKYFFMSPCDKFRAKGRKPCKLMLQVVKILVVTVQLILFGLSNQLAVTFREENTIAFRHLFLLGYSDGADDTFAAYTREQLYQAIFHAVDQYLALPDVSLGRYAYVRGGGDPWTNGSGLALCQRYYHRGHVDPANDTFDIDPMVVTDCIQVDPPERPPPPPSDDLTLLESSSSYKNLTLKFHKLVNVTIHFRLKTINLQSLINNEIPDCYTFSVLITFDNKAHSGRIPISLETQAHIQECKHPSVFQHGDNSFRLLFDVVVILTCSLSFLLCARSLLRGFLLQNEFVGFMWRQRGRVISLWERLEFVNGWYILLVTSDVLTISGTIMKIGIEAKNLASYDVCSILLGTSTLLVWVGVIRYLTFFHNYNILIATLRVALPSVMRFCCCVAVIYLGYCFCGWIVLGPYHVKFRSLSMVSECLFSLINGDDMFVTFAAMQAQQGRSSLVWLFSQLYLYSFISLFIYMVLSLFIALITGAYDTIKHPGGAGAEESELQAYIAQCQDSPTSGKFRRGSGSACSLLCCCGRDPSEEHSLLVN
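Calcium fluorescence on an FDSS kinetic reader gave the read-out. Tet-induced TRPML1-DL cells were plated overnight, dye-loaded (Ca8 with quencher, 45-90 min, room temperature, dark), then read 110 s after compound addition, and again 110 s after 4uM final 54-4 (EC80).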
TRPML1 inh: human mucolipin-1 channel inhibition. Q9GZU1. TRPML1-inducible cells, Ca2+ dye fluorescence, FDSS; active compounds read low; inhibition of EC80 agonist-evoked calcium signal. activity change, negative = inhibition, % (concentration not given with the values). 0.02% of 390,000 active; in the data active means activity change below about -50%; inconclusive means about -30% to -50%; inactive means above about -30%;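 also: stimulus is agonist 54-4 at its EC80 concentration; % is scaled to controls: 0 for no effect and ±100 for the full control effect; the text of the record puts the active cut at -80%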
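Tet-induced TRPML1-DL cells loaded with Ca8 no-wash calcium dye were read kinetically on FDSS. Compound addition was followed by EC80 agonist 54-4 (4 uM final); inhibition was read over 110 s.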
An asterisk follows results filed as active; u = inconclusive; x = no result given; [ ] = another dose, or the depositor's remark. Rows are unselected (roughly 1% active in at least one column).

molecule,Six1-Eya2 blk,D2 potentiator,D2 agonist,PINK1 modulator,TRPML1 ag,TRPML1 inh
O=C(c1cc(COc2ccc(F)c(F)c2)on1)N1CCN(C/C=C/c2ccccc2)CC1,-9.9,-24.1,-1.6,1.8%,0.2,0.6
COc1ccc(Cl)cc1C=CC=Nc1ccccc1O,-10.0,-8.0,2.1,u,0.7,-7.6
Cc1cc2n(n1)CCC(=O)N2Cc1ccc(C(=O)Nc2cccc(C(F)(F)F)c2)cc1,x,x,x,2.1%,1.8,-21.5
COc1cc2c(cc1OC)C(=O)C(Br)CC2 (configuration not stated),-25.5,-6.3,46.2*,10.9%,-0.9,2.3
CNC(=S)Nc1ccc(Nc2ccccc2)cc1,-5.9,-4.3,0.4,16.2%[38.3 µM],0.7,-8.0
CCC(C)(C)NC(=O)C(c1ccc(OC)cc1)N(C(=O)CCC(=O)Nc1cc(C)on1)c1ccc2c(c1)OCCO2 (configuration not stated),8.3,-5.7,-4.4,0.3%,-1.1,-9.7
CC/C(=N\NC(=O)C(N)=O)c1ccccc1O,-14.7,25.9,0.1,2.4%,1.0,15.1
CCC(OC(=O)c1nsc(Cl)c1Cl)C(=O)NC(C)(C)CC (configuration not stated),-0.5,-4.6,-0.9,-0.1%,-1.6,-7.8
CCCCCCCCCCCCN1[C@@H](CC(C)=O)c2cc(F)ccc2S1(=O)=O,30.9,-7.2,-4.1,27.3%,1.1,3.6
Cn1c(=O)n(C)c2cc([N+](=O)[O-])c(N3CCN(C(=O)c4ccccc4)CC3)cc21,-0.5,1.8,-2.1,25.1%[38.3 µM],0.2,15.1
O=C(NC1CCCCC1)c1ccc(S(=O)(=O)N2CCCCC2)cc1,13.6,-10.7,2.4,0.6%,0.3,21.3
COc1ccc(S(=O)(=O)N2CCSCC2)cc1C(N)=O,3.9,-1.8,1.2,-0.6%,0.1,4.3
Cc1ccc(CN2CCCn3nc(C(=O)NCc4ccc(OC(C)C)cc4)cc3C2=O)cc1,x,x,x,1.6%,1.9,39.8
COc1ccc(NC(=O)COc2ccccc2C(N)=O)cc1S(=O)(=O)N1CCCCC1,-12.0,-12.2,-3.8,1.2%,0.2,2.6
O=C(NCC1COc2ccccc2O1)Nc1ccccc1F (configuration not stated),1.6,-3.3,-1.2,-1.3%,-1.2,-2.8
Cc1ccc2sc(NC(=O)c3ccc(N4C(=O)CCC4=O)cc3)nc2c1C,2.6,-1.8,2.0,5.3%,-0.1,27.2
Cc1nnc(SCC(=O)Nc2nccs2)o1,u,6.2,0.6,5.9%,0.4,0.9
CCOc1ccc(C(c2c(O)cc(C)n(Cc3ccco3)c2=O)N2CCN(c3ccccc3)CC2)cc1 (configuration not stated),x,x,x,-0.3%,0.3,25.8
COc1ccccc1C1C2=C(CCCC2=O)N(CC(=O)O)C2=C1C(=O)CCC2,5.7,-0.1,-2.2,-0.2%,0.7,-4.8
Cc1cc(C)c(C)c(S(=O)(=O)N2CCC(C(=O)N(C)Cc3nc4ccccc4c(=O)[nH]3)CC2)c1C,-11.9,2.0,-1.4,0.0%,2.9,7.9
Cc1ccc(Cn2nc(C)c(NC(=O)c3cc(-c4ccc(F)cc4)on3)c2C)cc1,x,x,x,5.9%,0.1,-2.6
Cc1ccc(C(=O)NC(=S)c2c(C)cc3ccccn23)cc1,-75.9*,-26.7,-9.7,2.7%,0.4,8.8
O=C1COc2ccccc2N1Cc1ccc(Cl)cc1,17.3,5.5,7.4,1.0%,1.7,7.9
Cc1cc(C)n(-c2ccc(C(=O)NCCCN3CCOCC3)cc2)n1,0.0,-12.3,-2.6,2.3%,-0.2,-3.9
O=C(c1cccs1)N1CCc2c([nH]c3ccccc23)C1c1ccc(Cl)cc1 (configuration not stated),-18.3,-2.2,-0.6,-0.7%,-0.7,7.8
CC(=O)Nc1ccc(S(=O)(=O)Nc2nc3ccccc3nc2N2CCCCCC2)cc1,-3.7,-10.1,-4.8,0.9%,0.0,-9.9
COc1cc(OC)c(C(=O)Nc2ccc3ccccc3c2)cc1OC,-18.8,-4.6,-1.1,2.5%,-0.5,-8.0
CCOc1ccc2nc(NC(=O)C(NS(=O)(=O)c3cccs3)C(C)C)sc2c1 (configuration not stated),1.5,-3.7,-2.1,u,0.5,5.7
O=C1NC(=O)/C(=C\c2ccc(OCc3cccc(C(=O)O)c3)c(Cl)c2)N1,u,-23.1,0.3,0.5%,0.7,5.3
COc1ccc(NC(=O)CN2CCN(c3ccccc3C)CC2)cc1,0.4,-22.7,6.1,0.5%,0.2,19.1
O=C(COc1ccc2c(c1)CCC2)N1CCN(c2ccc(F)cc2)CC1,-8.6,-8.2,0.7,-1.2%,2.8,13.2
CC(C)c1nc2sc3ccccc3c(=O)c2c(=O)n1Cc1ccccc1,-3.6,0.2,-0.1,-0.9%,0.4,-8.4
COc1ccc(Nc2cnn(-c3nc4ccccc4s3)c(=O)c2Cl)cc1,-19.1,-34.6,1.7,u,6.3,5.4
COc1ccc(C(=O)C2CCCN(C/C=C/c3ccccc3OC)C2)c(OC)c1 (configuration not stated),-12.1,-8.5,-2.3,u,-0.3,18.6
Cc1ccc(NC(=O)CN2C(=O)NC3(CCCC3)C2=O)nc1,0.6,-1.2,-2.8,0.1%,-0.3,6.1
O=C(CCCCCN1C(=O)c2ccccc2C1=O)NC1CCCC1,5.7,12.7,0.4,0.2%,-0.9,-2.6
C=C(C)Cn1c(SCC(=O)Nc2ccccc2C)nc2sc3c(c2c1=O)CCCC3,x,x,x,0.3%,1.2,2.2
CCC(=O)Nc1ccc(C(=O)CSc2nnc(-c3ccc(O)cc3)n2CC2CCCO2)cc1 (configuration not stated),2.2,-9.9,-3.3,10.5%[38.3 µM],0.4,-0.1
COc1ccc(C(C(=O)NC2CCCC2)N(Cc2cccnc2)C(=O)c2snc(C(N)=O)c2N)cc1 (configuration not stated),4.4,-6.4,-2.9,-2.4%,-0.2,-9.4
O=C(O)CC1C(=O)NCCN1Cc1cccs1 (configuration not stated),-2.4,0.2,1.4,0.0%,1.4,11.1
O=C(NCc1ccc(Cl)cc1Cl)Nc1ccccc1,6.4,-4.7,7.8,5.8%,-0.8,16.7
NS(=O)(=O)c1cccc(C(=O)OCC(=O)NC2CCCc3ccccc32)c1 (configuration not stated),6.5,-6.5,-1.4,0.1%,-0.7,-3.0
CCn1ccc(=O)c2cc3c(cc21)OCO3,8.2,-11.8,-4.8,0.6%,0.3,-6.3
COCCN(C(=O)COC(=O)c1cc2ccccc2cc1OC)c1c(N)n(Cc2ccccc2)c(=O)[nH]c1=O,-3.0,-5.5,2.9,3.2%,-0.2,1.0
Cc1cc(C)nc(SCC(=O)Nc2ccc(S(=O)(=O)NC(C)(C)C)cc2)n1,2.7,9.4,1.8,-3.5%[38.3 µM],0.7,1.3
COc1cccc(/C=C(/C#N)c2nc3ccccc3[nH]2)c1OC(C)C(=O)O (configuration not stated),-10.0,-11.2,-3.5,0.1%,0.4,-16.3
CC1(C)Cc2cccc(OCC(=O)N3CCN(c4ccc([N+](=O)[O-])cc4)CC3)c2O1,-12.7,-12.7,-5.0,0.6%,3.2,20.7
Cc1ccc(-n2nc3c(=O)n(C(C)C(=O)NCCC4=CCCCC4)nc(C)c3c2C)cc1 (configuration not stated),-0.4,-3.2,4.9,2.8%,0.5,3.8
COCCN(CCOC)CC(O)COC(c1ccccc1)c1ccccc1 (configuration not stated),5.3,1.0,0.1,-0.1%,0.3,-6.2
CCOC(=O)c1ccccc1NC1c2ccccc2C(=O)N1C1CCN(C(=O)OCC)CC1 (configuration not stated),-0.1,-5.4,0.0,4.9%,0.3,19.4
CCCn1c(CCCNC(=O)c2ccccc2OC)nc2ccccc21,x,x,x,-0.5%,0.4,-13.2
COc1ccc(N2CCN(c3oc(-c4ccc(COc5cccc(C)c5)o4)nc3C#N)CC2)cc1,x,x,x,4.0%,-0.3,-16.0
CNC(C)C#Cc1ccc2c(=O)c3cc(C)c(C)cc3oc2c1 (configuration not stated),-2.2,-4.6,-1.3,-2.0%,0.2,8.6
CCCNC(=O)C[C@H]1C[C@H]2c3cc(NC(=O)Nc4ccc(F)cc4)ccc3O[C@H]2[C@@H](CO)O1,4.1,5.6,-1.8,-0.1%,-0.2,-10.4
O=c1cc(CSc2ccc([N+](=O)[O-])cc2)nc2sccn12,3.7,-1.8,5.8,0.2%,-1.0,-2.0
COC(=O)c1c(C)cc(O)c(C)c1O,5.1,-9.3,-3.8,2.5%,x,x

(next part)
molecule,Six1-Eya2 blk,D2 potentiator,D2 agonist,PINK1 modulator,TRPML1 ag,TRPML1 inh
O=C(CSc1nc(=O)n(CCCN2CCOCC2)c2c1CCC2)Nc1ccc(F)cc1,-2.2,6.1,-0.9,-8.7%,1.2,6.0
CC(=O)Nc1nc(C)c(CCCOc2ccc([N+](=O)[O-])cc2)c(=O)[nH]1,5.4,-20.2,6.5,1.0%,-0.4,3.3
COc1ccc(S(=O)(=O)N(CCN2CCOCC2)Cc2cc(OC)ccc2OC)cc1,-2.4,-25.4,-0.2,-2.1%,2.4,-10.4
O=C(Nc1ccccc1)N1N=C(c2cccs2)CC1c1cccs1 (configuration not stated),6.0,-11.5,2.1,-0.8%,2.8,-6.0
Cc1cc2ccccc2n1CCNC(=O)C1CCCC1,-2.0,1.2,-0.5,1.5%,-1.8,0.2
Cc1cccc(C)c1OCc1nc2c3cnn(-c4cccc(F)c4)c3ncn2n1,x,x,x,0.2%,-0.6,10.8
COc1cc(NC(=O)/C=C/c2ccccc2)c(C(=O)O)cc1OC,-0.1,2.3,1.5,0.8%,x,x
CSCCC(NS(=O)(=O)c1ccc2c(c1)Cc1cc(S(=O)(=O)NC(CCSC)C(=O)O)ccc1-2)C(=O)O (configuration not stated),u,-4.6,0.7,0.4%,0.2,-5.4
CSc1nc(N)nc2c1ncn2CC(=O)N[C@H](C)c1cccc2ccccc12,-10.4,x,0.2,2.2%,-0.8,-5.9
Cc1cc(NC(=O)c2cc(-c3ccc(Br)cc3)on2)nn1Cc1ccc(Cl)cc1,x,x,x,1.5%,-0.2,17.0
Cc1ccc(NC(=O)CCNC(=O)c2ccco2)cc1F,-0.5,-27.3,-4.2,0.5%,-0.4,-4.5

Some of the entries so far, with each value named.
molecule: Cc1cc2ccccc2n1CCNC(=O)C1CCCC1
- Six1-Eya2 blk: -2.0
- D2 potentiator: 1.2
- D2 agonist: -0.5
- PINK1 modulator: 1.5%
- TRPML1 ag: -1.8
- TRPML1 inh: 0.2
molecule: Cc1cccc(C)c1OCc1nc2c3cnn(-c4cccc(F)c4)c3ncn2n1
- Six1-Eya2 blk: x
- D2 potentiator: x
- D2 agonist: x
- PINK1 modulator: 0.2%
- TRPML1 ag: -0.6
- TRPML1 inh: 10.8
